# Compound activity as filed in PubChem.
# Tg IFNy HTS: inhibitors of Toxoplasma gondii growth with IFN-gamma; Toxoplasma gondii growth in IFN-gamma-treated host cells; hits give low values; reference of the scale not given here; activity change, negative = inhibition, %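 (about 20 µM by stock and volumes)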; 69,000 compounds, 3.8% hits;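 active means below -70%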;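 further: host cells are HeLa cells infected with Toxoplasma gondii; parasite growth read as luciferase light; one replicate is shown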
# Numbers without * were called inactive; & = joins results of further samples.
SMILES,Tg IFNy HTS
CCN1CCO[C@H]2CCN(C(=O)c3cscn3)C[C@H]21,6
O=C1CCc2cc(S(=O)(=O)NCCc3ccccc3)cc3c2N1CCC3,-5
CCOc1ccc(-c2cnc(-c3nccn3CC)[nH]2)cc1OCC,-81*
N#Cc1cc2c(ccc3ccccc32)oc1=N,142
COC(=O)c1ccc(-n2c(C)ccc2C)cc1,70
CCN(C[C@@H]1[C@@H](c2ccccc2)[C@H](CO)N1CC1CC1)C(=O)c1ccccn1,9
NC(=S)c1cc(Br)cc(Br)c1,16
COc1ccccc1NC(=O)N1CCc2nc(CNC(=O)C3CCC3)n(C)c2C1,190
Cn1nc(-c2cccc(F)c2)c2c1C[C@H]1CN(Cc3ccncc3)C[C@H]21,-6
COc1ccccc1N1CCN(CC(O)COc2cccc3ccccc23)CC1 (stereo unspecified),-11&3&17
CCN(CC)Cc1cnc2n1CCN(C(=O)Cc1ccsc1)CC2,61
Cc1csc(-c2cc(S(=O)(=O)N3CCC(Cc4ccccc4)CC3)c(C)s2)n1,4
O=C(CSc1ccncc1)N1CCCC(c2ccccc2)C1 (stereo unspecified),-9
N#Cc1c(N)nc(SCc2csc(-c3ccc(Cl)cc3)n2)c(C#N)c1-c1ccc(OCCO)cc1,-50
CC(=O)N1C(Cn2cccn2)CC2CN(Cc3ccco3)CCC21 (stereo unspecified),9
O=C(c1cn[nH]n1)N1CCCC(COc2cccc(F)c2)C1 (stereo unspecified),-2
N[C@@H](CSS(=O)(=O)O)C(=O)O,10
C=CCN(C(=O)CCc1c(C)nn(C)c1C)C1CCS(=O)(=O)C1 (stereo unspecified),0
CCC(=O)N[C@@H]1CC[C@H](CC(=O)NCc2ccccc2F)O[C@@H]1CO,52
CCCC1(CO)CCCN1C(=O)c1ccc2cc[nH]c2c1 (stereo unspecified),155
CC(=O)Oc1ccc(C(=O)Nc2nccs2)cc1,-37
O=C1C(=O)N(CSc2nnc(-c3ccco3)o2)c2ccccc21,15
COc1nc2ccccc2cc1-c1nc(C)ncc1C,4
CC(C)n1nc(CNS(C)(=O)=O)c2c1CN(C(=O)NC1CC1)CC2,-24
CCOc1ccc(NC2=NCC(=O)N2c2ccc(OCC)cc2)cc1,-16
O=C(NCc1nncn1C1CCCCC1)c1cccc2ccnn12,67
Cc1ccc(C2c3[nH]c4ccccc4c3CCN2C(=O)C2CC2)cc1 (stereo unspecified),146
CC(Oc1ccc2c(c1)OCO2)c1nc(CC2CCN(C)CC2)no1 (stereo unspecified),-30
CC(=O)Oc1c(C)cc(OCC(O)CNC(C)C)c(C)c1C (stereo unspecified),6
CCn1cc(-c2nnc(SCC(=O)O)n2C2CC2)cn1,9
CN(C)C1CCCN(C(=O)CCc2ccccc2Cl)CC1 (stereo unspecified),4
COc1ccc(-c2onc(C)c2-c2ccc(C(=O)OC(C)C)o2)c(O)c1,-21
Cc1nc(C)c(CC(=O)Nc2ccccc2CN2CCCCCC2)s1,44
Cn1cnc(CCNC(=O)[C@@H]2[C@@H](CO)[C@@H]3Cn4c(cccc4=O)[C@@H]3N2C(=O)Nc2ccccc2)c1,2
C[C@@H]1CCCCO[C@@H](CN(C)C(=O)C2CCCCC2)[C@@H](C)CN([C@H](C)CO)C(=O)c2cc(NS(=O)(=O)c3ccccc3)ccc2O1,-41
COCC#Cc1ccc([C@@H]2[C@H](CO)N3CCCCN(C(=O)NC4CCCC4)C[C@@H]23)cc1,2
COc1ccc(NC(=O)C(=O)NCCc2csc(-c3ccc(C(F)(F)F)cc3)n2)cc1,112
Cc1ccc(F)cc1CC(=O)N(C)CCc1scnc1C,22
CCc1cc(C(=O)NC(C)CN2CCCCCC2)cs1 (stereo unspecified),2
O=C(O)[C@H](CC(=O)N1C[C@H]2CCCC[C@H]2C1)Cc1ccccc1,14

# Sorted by length of the SMILES (ascending): some entries from above.
SMILES,Tg IFNy HTS
CC(=O)Oc1c(C)cc(OCC(O)CNC(C)C)c(C)c1C (stereo unspecified),6
CCOc1ccc(NC2=NCC(=O)N2c2ccc(OCC)cc2)cc1,-16
COc1ccccc1N1CCN(CC(O)COc2cccc3ccccc23)CC1 (stereo unspecified),-11&3&17

# Looked up above.
# In Tg IFNy HTS, C[C@@H]1CCCCO[C@@H](CN(C)C(=O)C2CCCCC2)[C@@H](C)CN([C@H](C)CO)C(=O)c2cc(NS(=O)(=O)c3ccccc3)ccc2O1 shows -41
# In Tg IFNy HTS, COCC#Cc1ccc([C@@H]2[C@H](CO)N3CCCCN(C(=O)NC4CCCC4)C[C@@H]23)cc1 shows 2

# More compounds
SMILES,Tg IFNy HTS
Cc1ccc(C)c(-c2[nH]ncc2CN(C)Cc2ncc[nH]2)c1,-7
O=C(NCc1ccco1)c1ccc2c(c1)CCO2,27
Cc1[nH]n(-c2ccccc2)c(=O)c1N=Nc1c(C)n(C)n(-c2ccccc2)c1=O,-92*
Cc1nonc1COc1ccc(C(=O)O)cc1,-31
C=CCN1C(=O)C(CC(=O)NCC)SC1=Nc1ccccc1OC (stereo unspecified),5
Cc1ccc2c(c1C)-n1cccc1C1(CCN(C(=O)COc3ccc(F)cc3)CC1)N2,28
COc1ccccc1-c1ccccc1[C@H]1[C@@H](C#N)N(C(=O)C2CCOCC2)[C@H]1CO,-34
COc1ccccc1C(=O)Nc1ccc2c(c1)C(=O)N(C)C[C@H](OC)[C@@H](C)CN(C(C)=O)[C@H](C)CO2,-11
COc1ccc(CCN2C(=O)O[C@@H]3CN(C(=O)c4ccccc4)C[C@@H]32)cc1,-6
CO[C@@H]1CC[C@@H]2CCN(C)C(=O)CCCN(C)C(=O)c3cc(C#N)ccc3OC[C@H]1O2,-53
CCOCC1CN(Cc2ccc(OC)cc2)Cc2nn(CC3CC3)cc21 (stereo unspecified),5
Cc1ccsc1CNc1ccccc1C(=O)N1CC=CC1C(C)C (stereo unspecified),-5
Cc1noc(C)c1NC(=O)N1C[C@@H](O)COC[C@@H]2O[C@H](CC(=O)NCC3CC3)CC[C@H]21,7
C1=C(c2ccccc2)N2CCCCN=C2S1,-46
C[C@@H]1CN([C@H](C)CO)C(=O)c2ccccc2-c2ccccc2CO[C@H]1CN(C)S(=O)(=O)c1cn(C)cn1,-7
Cc1ccc(S(=O)(=O)N2CCC3(CC2)NCCN=C3NCc2ccc3c(c2)OCO3)c(C)c1,-14
CNC(=O)C1CCN(c2cc(C)c3cc4c(cc3n2)CCC4)C1 (stereo unspecified),-44
COc1ccc(C2(CNCc3cc(-c4ccc(Cl)cc4)c[nH]c3=O)CCOCC2)cc1,311
C1=CC[C@H]2CN(c3ccncc3)C[C@H]2C1,-13
Cc1ccccc1CSCC(=O)Nc1c[nH]c(=O)[nH]c1=O,15
COc1ccccc1NC(=O)N1CC(=O)N2[C@H](C1)[C@H](c1ccc(C#CC(C)C)cc1)[C@@H]2CO,-10
CN(C)C(=O)CN1CCO[C@@]2(CCC[C@H]2COCc2nccs2)C1,0
O=C(NCC1(Cn2cccn2)CC1)c1ccc(C2CCNC2)cc1 (stereo unspecified),2
CCn1cc(C(=O)N(CC2COc3ccccc3O2)C(C)C)c(C)n1 (stereo unspecified),-4
CN(C)C(=O)NCc1nnn2c1CN(Cc1ccsc1)CCC2,3
COCC(=O)Nc1ccc2c(c1)C(=O)N(C)[C@@H]1CC[C@@H](CC(=O)NC3Cc4ccccc4C3)O[C@@H]1CO2,1
CN(C[C@H]1[C@@H](c2ccccc2)[C@@H](CO)N1Cc1ccccn1)S(C)(=O)=O,-35
O=C(NC1(c2ccc3c(c2)OCO3)CCCC1)c1ccco1,13
CN(C)CCNC(=O)c1nc2c(o1)CN(CC1CC1)C2,-42
O=C(CNC1CCCCC1)Nc1ccc(Oc2ccccc2)cc1,-42
Fc1ccc(-n2nnnc2-c2cnn(-c3ccccc3)c2-c2ccccc2)cc1,-52
CCCCCN1CC2CN(C(=O)Nc3ccccc3)CC2C1 (stereo unspecified),1
Cc1ccc(C(=O)N(C)Cc2ncccc2C)cc1NC(=O)C1CCC1,0
CN(C)Cc1nn(C)c2c1CCN(c1nccs1)C2,-65
O=C(CCC1Nc2c3ccccc3nc(=S)n2C1=O)NC1CCCC1 (stereo unspecified),12
CNC(=O)[C@@]12CCC3(CCN(C(C)=O)CC3)[C@H]1CN(S(C)(=O)=O)C2,6
CCn1cc(CN2CCN(C(=O)c3ccnc(N4CCOCC4)c3)CC2)c(C)n1,14
COCCN1CCCC(O)(CN(C)Cc2cnccn2)C1=O (stereo unspecified),-2
Cc1c(-c2ccnc3cc(C(=O)NC(C)COc4ccc(Cl)cc4)nn23)cnn1C (stereo unspecified),-51
CCS(=O)(=O)N1CC2(CN(Cc3cccc(Cl)c3)[C@H](CO)c3c2c2ccc(OC)cc2n3C)C1,-40
CCOC(=O)c1nc(Nc2ccc(C)c(C)c2)c2ccccc2n1,-48
Cc1cccc(OC2CCN(C(=O)c3nc4ccccc4n(C)c3=O)CC2)c1,7
CC(=O)N1CCc2c(nc(-c3ccccn3)nc2NCCc2ccc(F)cc2)C1,-41
CN(Cc1ccc2c(c1)OCO2)Cc1cc(-c2ccccc2)no1,2
Cn1nc(-c2cccs2)cc1C(=O)O,-2
CN(C)C(=O)COCC12CCCOC1CCN(C(=O)N1CCCC1)C2 (stereo unspecified),4
CCOc1cccc(=O)c2c(C)n(CC(=O)c3ccccc3)c(C)c12,-8
CN1CC(=O)N(c2cccc(F)c2)CC12CCN(C(=O)c1cccn1C)C2 (stereo unspecified),0
Cc1nc2c(nc(SCc3nc(-c4cccc(Cl)c4)oc3C)n2C)c(=O)[nH]1,-3
COc1cc(-n2ccnc2)cc(OC)c1OC,8
# Further structures.
SMILES,Tg IFNy HTS
Cc1ccc(C(=O)N2CCC3(CCC(COCC4CC4)N3C)CC2)cc1 (stereo unspecified),-3
O=C(c1ccccc1F)N1C[C@@H]2OCCN(c3ncccn3)[C@H]2C1,-8
CCC(=O)N1C[C@@H](C)[C@@H](OC)CN(C)C(=O)c2ccc(NC(=O)CC(F)(F)F)cc2OC[C@@H]1C,90
Cc1ccc2c(c1)NC1(CCN(C(=O)Nc3ccccc3)CC1)c1cccn1-2,96
Cc1cc2nc(CN3CC(=O)N4CC[C@@H](O)C[C@H]4C3=O)[nH]c2cc1C,6
Cc1ccc(OCCSc2nc3ccccc3n2CCC(=O)O)c(C(C)C)c1,-1
COc1cccc(CN2CC3(CN(C)C3)c3c(n(C)c4cc(OC)ccc34)[C@@H]2CO)c1,-11
COC(=O)c1c(OC)ccc(-n2cccc2)c1OC,6
Cc1cc(C)nc(N(C#N)CC(=O)c2ccccc2)n1,80
Cc1ncc(CN2CCc3c([nH]c4ccccc34)C2c2ccc(F)cc2)s1 (stereo unspecified),-26
COc1ccc(CNC(=O)Cn2ncc3c(N4CCOCC4)ncnc32)cc1,25
OC(CN1CCCCCC1)CN(c1ccccc1)c1ccccc1 (stereo unspecified),-39
CCOCC(=O)N1CC[C@H](OC)[C@@H](Cc2ccccc2)C1,-4
CCOc1cccc(-c2noc(-c3c(O)c4cc(C)ccc4[nH]c3=O)n2)c1,-33
O=C(NCC[C@@H]1CC[C@H](NC(=O)C2CCOCC2)[C@H](CO)O1)c1cc(Cl)cc(Cl)c1,69
CCOC(=O)c1cccnc1-c1ccc(OC)nc1,14
CCc1nnc(NC(=O)CSc2nnc(Cc3ccc(OC)cc3)n2C)s1,-16
CCOC(=O)N1CCC(N(C)Cc2nc3ccc(C)cc3[nH]2)CC1,5
Nc1ccccc1Sc1nccc(C(F)(F)F)n1,-58
COc1cc(NC(=O)c2cncc(NS(=O)(=O)c3ccc(Br)cc3)c2)cc(OC)c1,-26
C[C@H]1CNCCCN1S(=O)(=O)c1cccc2cncc(F)c12,-3
Cc1ccc(S(=O)(=O)Oc2cccnc2)c(C)c1F,-10
NC1CC(=O)N(Cc2ccccc2Cl)C1 (stereo unspecified),0
CCC1CN(C(=O)c2ccccc2NC(=O)c2ccc(C)o2)CCN1 (stereo unspecified),-2
O=C(O)c1cc2cc(F)ccc2[nH]1,-5&18
Cn1ccnc1-c1nccn1CC1CCN(Cc2ccccc2)CC1,-8
c1c(CN2CCC(c3nnc4n3CCCCC4)CC2)nn2c1CNCC2,7
O=C1C(=O)C(c2ccccc2)C(=O)C1c1ccccc1 (stereo unspecified),46
COc1ccc(-c2ccc(CCC(=O)O)n2NC(N)=O)cc1,6
O=C(Cn1c(=O)cc(C(=O)N2CCCCC2)c2ccccc21)NCc1ccc2c(c1)OCO2,-1

# Quoted at random: 3 compounds from above, in no set order.
SMILES,Tg IFNy HTS
CCC1CN(C(=O)c2ccccc2NC(=O)c2ccc(C)o2)CCN1 (stereo unspecified),-2
COc1ccc(-c2ccc(CCC(=O)O)n2NC(N)=O)cc1,6
C[C@H]1CNCCCN1S(=O)(=O)c1cccc2cncc(F)c12,-3

# (list continues)
SMILES,Tg IFNy HTS
CCC(=O)Nc1ccc2c(c1)OC[C@H](C)N(Cc1ccccc1)C[C@@H](C)[C@@H](OC)CN(C)C2=O,211
O=C(Nc1ccc2nonc2c1)N1CCOCC1,-44
COc1ccc(-n2nnc(C(C)=O)c2NCc2ccco2)cc1,62
O=C(C[C@@H]1CC[C@H]2[C@@H](COC[C@@H](O)CN2C(=O)c2ccc(F)cc2)O1)N1CCCCC1,9
C[C@H](CO)N1C[C@H](C)[C@@H](CN(C)Cc2ccccc2C(=O)O)OCc2cnnn2CCCC1=O,24
CCCn1c(=O)c(-c2nc(-c3ccc(Cl)c(F)c3)no2)c(O)c2ccccc21,105
CO[C@H]1CC[C@@H]2CCN(C)C(=O)[C@H](C)N(C)C(=O)c3cccc(C#N)c3OC[C@@H]1O2,-47
CCC1=N[C@@]2(CC[C@@H]3CN(C(=O)NCC4CCCCC4)C[C@H]32)C(=O)N1C,-31
COc1ccc(S(=O)(=O)N2CCc3c([nH]c4ccccc34)C2c2cc(F)ccc2F)cc1 (stereo unspecified),-47
CC(C)(C)c1ccc(-c2nnc(SCc3ccccc3Cl)o2)cc1,-19

# Gathered by group: those above containing a cyano group.
SMILES,Tg IFNy HTS
N#Cc1cc2c(ccc3ccccc32)oc1=N,142
N#Cc1c(N)nc(SCc2csc(-c3ccc(Cl)cc3)n2)c(C#N)c1-c1ccc(OCCO)cc1,-50
COc1ccccc1-c1ccccc1[C@H]1[C@@H](C#N)N(C(=O)C2CCOCC2)[C@H]1CO,-34
CO[C@@H]1CC[C@@H]2CCN(C)C(=O)CCCN(C)C(=O)c3cc(C#N)ccc3OC[C@H]1O2,-53
Cc1cc(C)nc(N(C#N)CC(=O)c2ccccc2)n1,80
CO[C@H]1CC[C@@H]2CCN(C)C(=O)[C@H](C)N(C)C(=O)c3cccc(C#N)c3OC[C@@H]1O2,-47

# Some of the compounds tested; rates above refer to the full screens.
